Assay outcomes from PubChem.
T cruzi repl – inhibitors of intracellular T. cruzi growth, primary screen, luminescence, NIH3T3 host cells. actives 1.4% (n = 300,000). T. cruzi beta-gal in NIH3T3, 90 h. inhibition, % (test concentration not listed);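 active = mean inhibition across valid replicates above about 55%, limit read from the data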;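 also: signal also drops with host cell toxicity which is not excluded here; 0% = plate median of DMSO wells and 100% = zero luminescence signal; higher percent means less beta-gal luminescence so fewer parasites; stock transfer was 50 nL into about 50 µL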
Ecoli rRNA inh – reduced GFP signal of wild-type E. coli, primary screen, bacterial rRNA inhibitor project, GFP/RFP fluorescence, OD600, single point. E. coli WT GFP vs humanized-ribosome RFP mutants, 24 h; active compounds read low; DMSO median 0, no signal -100. AID 720706, 2013. actives 1.6% (n = 350,000). GFP signal change (wild-type ribosome), % (test concentration not listed);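 active = significant combined selectivity score with lowered wild-type GFP, culture density cut under 30%, mutant RFP and density less affected; inactive = any of these conditions unmet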; also: one replicate is shown; some compounds called inactive have numbers as strong as hits
E coli growth – E. coli growth inhibition, primary screen, OD600; Escherichia coli growth, 23 h; active compounds read low; OD600 absorbance (test concentration not listed); actives 0.21% (n = 330,000); AID 1053175, 2014;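 active = OD600 absorbance below the run mean of sample wells minus 3.6 SD, in any replicate, cut at about 0.56 in these data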;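 also: stock transfer was 300 nL into about 60 µL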
Beta cell apopt – inhibitors of cytokine-induced beta cell apoptosis, primary screen, luminescence | INS-1E cytokine-induced death, ATP luminescence, 48 h; percent of positive-control rescue, neutral wells zero | protection from apoptosis, % (test concentration not listed) | actives 0.8% (n = 300,000) | AID 435005, 2010;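 active = all replicates at 75% or more, or half of them and the mean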;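 also: 0% = cytokine-treated negative control wells and 100% = positive control rescue; higher means more ATP so stronger rescue from cytokine killing; wells of about 40 µL received 100 nL stock; the first replicate is given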
AF4-AF9 inh – inhibitors of AF4 peptide binding to AF9, primary screen, biochemical, AlphaScreen, biotin-AF4 peptide, FLAG-AF9, single point; Protein AF-9 (Homo sapiens), P42568; inhibition, % at 10 µM; actives 0.47% (n = 350,000);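 active = every replicate reaching a set inhibition limit, whatever the replicate mean, cut at about 25% in these data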;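 also: 0% = plate neutral control median and 100% = total signal loss; the record names both 10 and 1 µM as test concentration; the first replicate is given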
Target sequence (P42568 whole entry, looked up): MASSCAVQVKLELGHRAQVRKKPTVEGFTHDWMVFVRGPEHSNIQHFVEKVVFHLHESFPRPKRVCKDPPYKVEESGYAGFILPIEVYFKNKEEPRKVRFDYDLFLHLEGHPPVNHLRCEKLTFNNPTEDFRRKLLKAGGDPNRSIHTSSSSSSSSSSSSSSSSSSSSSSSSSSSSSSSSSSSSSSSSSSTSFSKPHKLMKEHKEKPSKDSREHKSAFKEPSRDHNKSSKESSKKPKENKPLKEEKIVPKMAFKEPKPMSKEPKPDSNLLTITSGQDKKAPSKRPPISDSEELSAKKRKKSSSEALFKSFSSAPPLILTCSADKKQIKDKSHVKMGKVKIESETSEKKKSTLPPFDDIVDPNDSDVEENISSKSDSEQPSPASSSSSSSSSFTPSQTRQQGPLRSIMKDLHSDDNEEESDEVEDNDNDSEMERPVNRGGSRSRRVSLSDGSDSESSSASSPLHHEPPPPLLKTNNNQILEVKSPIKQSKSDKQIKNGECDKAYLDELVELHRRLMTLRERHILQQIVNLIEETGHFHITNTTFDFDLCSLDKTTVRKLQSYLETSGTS
UCH37 DUB inh – inhibitors of human UCH37 deubiquitinase, primary screen, biochemical, Ub-AMC cleavage, fluorescence; Ubiquitin carboxyl-terminal hydrolase isozyme L5 (Homo sapiens), Q9Y5K5; purified proteasome/UCH37; inhibition, % (test concentration not listed); actives 0.33% (n = 330,000); AID 588478, 2011;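 active = mean of two replicates above 20%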;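 also: 0% = compound-free wells with enzyme and 100% = wells lacking proteasome; stock transfer was 100 nL into about 20 µL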
Target sequence (Q9Y5K5 whole entry, looked up): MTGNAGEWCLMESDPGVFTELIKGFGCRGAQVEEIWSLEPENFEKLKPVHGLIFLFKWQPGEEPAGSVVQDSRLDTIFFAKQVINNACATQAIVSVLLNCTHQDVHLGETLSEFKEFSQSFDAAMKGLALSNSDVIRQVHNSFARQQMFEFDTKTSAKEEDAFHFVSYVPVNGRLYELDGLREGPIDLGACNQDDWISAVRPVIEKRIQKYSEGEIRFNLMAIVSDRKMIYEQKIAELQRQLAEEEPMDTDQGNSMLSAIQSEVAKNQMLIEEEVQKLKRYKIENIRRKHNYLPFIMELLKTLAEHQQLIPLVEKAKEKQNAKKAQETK
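System: Proteasome-associated human UCH37 deubiquitinase; Input: 0.15 nM proteasome in added enzyme buffer; Also added: Ub-AMC substrate from 1 µM stock; Incubation: 30 min compound-proteasome preincubation then 25 min substrate reaction, room temperature; Detection: fluorescence, ex 355 nm, em 460 nm; Read-out: % inhibition of Ub-AMC cleavage fluorescence; Benchmarks: no-proteasome and no-compound wells.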
Bfl-1 A1 inh – caspase 3/7 activation in MEF A1-2A-BIM cells, primary screen, A1 inhibitor project, cell-based, luminescence, HTS; Caspase-Glo 3/7 luminescence, 3 h; percent of clofoctol response, vehicle zero; caspase activation, % (no concentration beside the values); actives 0.066% (n = 330,000); AID 2462, 2010;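 active = over half of replicate activation scores above 10%, or exactly half above 10 with the replicate mean above 10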;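 also: wells of about 30 µL received 50 nL stock; many hits fall short of the cut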
FGF22 binding – binders of human FGF22 protein, primary screen, FGF22 synaptogenesis inhibitor project, biophysical, thermal shift, single point; recombinant FGF22 thermal shift, SYPRO orange fluorescence; percent of sucrose octasulfate shift, DMSO zero; Fibroblast growth factor 22 (Homo sapiens), Q9HCT0; calls only at 9.99 µM; AID 651658, 2012; actives 1.5% (n = 340,000);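 active = melting point raised past a set limit in the mean and every replicate; three in four hits are not shown here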
Target sequence (Q9HCT0 whole entry, looked up): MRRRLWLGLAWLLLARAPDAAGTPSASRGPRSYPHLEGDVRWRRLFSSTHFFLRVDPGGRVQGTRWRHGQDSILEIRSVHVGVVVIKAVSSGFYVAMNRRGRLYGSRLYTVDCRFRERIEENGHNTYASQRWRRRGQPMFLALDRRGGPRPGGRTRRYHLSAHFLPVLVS
Ecoli rRNA inh OD600 – recorded beside Ecoli rRNA inh, whose call it bears; OD600 change, %; measured here: OD600 growth;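 optical density of the mix in the first replicate; 0 = DMSO median and -100 = no signal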
Ecoli rRNA inh RFP – further read-out of Ecoli rRNA inh, marked with its call; RFP signal change, %; measured here: RFP humanized mutant strains;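 first replicate; 0 = DMSO median and -100 = no signal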
* = called active by the depositor; i = inactive; . = no result given. The list is partial (hit frequency here may not be typical).

SMILES	T cruzi repl	Ecoli rRNA inh	Ecoli rRNA inh OD600	Ecoli rRNA inh RFP	E coli growth	Beta cell apopt	AF4-AF9 inh	UCH37 DUB inh	Bfl-1 A1 inh	FGF22 binding
CC1(C)c2[nH]c3ccccc3c2C[C@H]2C(=O)N(Cc3ccccc3)C(=O)N21	11	-28	-58	4.0	.	0	5.4	-3.0	0.3	i
CCOC(=O)C1CCN(C(=O)COc2ccc(Cl)cc2Cl)CC1	3	.	.	.	0.77	2	.	-1.0	0.4	.
CCN(CC)CCN(Cc1cc2cc3c(cc2[nH]c1=O)OCO3)C(=S)NCCCOC	3	19	19	0.8	0.67	-3	-6.3	-196	0.9	i
c1ccc2c3c([nH]c2c1)-c1[nH]ncc1CC3	-22	.	.	.	0.6	-22	.	-14	0.1	.
O=C(/C=C/c1ccc2c(c1)OCO2)c1cccnc1	14	-4	-1	4.7	0.64	-6	-0.4	3.6	0.0	i
COC(=O)[C@@]1(Cc2ccc(OC)cc2)[C@H]2c3cc(C(=O)N4CCCC4)n(CCn4cc([N+](=O)[O-])nc4C)c3C[C@H]2CN1C(=O)c1ccccc1	0	6	3	-3.9	.	3	-2.8	1.4	0.9	i
CC(CCc1ccccc1)NC(=O)c1ccccc1Cl (centres undefined)	-5	3	8	-2.8	0.69	-10	2.7	1.6	0.7	i
COc1ccccc1-c1cc(=O)c2c(O)ccc([N+](=O)[O-])c2o1	-6	-9	-7	-10	0.59	1	0.9	2.2	-0.1	i
COc1ccc(S(=O)(=O)N2CCCC2CNC(=O)C(=O)NCc2ccccn2)cc1 (centres undefined)	-2	13	4	-1.0	0.67	-1	-0.4	3.1	0.6	i
COc1ccccc1-n1ccnc(SCC(=O)NC2CCCC2)c1=O	-4	3	-3	-2.0	0.67	-11	-21	-7.7	0.0	i
N/C(=N\c1nc2ccccc2o1)NC(=O)c1ccc([N+](=O)[O-])cc1	-5	4	8	-1.2	.	8	2.8	.	0.7	i
CCOc1ccc(CNC(=O)C(C)n2ccc3cc(S(=O)(=O)N4CCCC4)ccc32)cc1 (centres undefined)	20	0	-21	1.6	0.69	-3	-0.2	5.6	-2.3	i
O=C(CCCn1c(=O)oc2ccccc21)Nc1ccccc1	.	1	6	-2.1	0.68	.	-5.0	2.0	.	i
Clc1nc(N2CCOCC2)ncc1Br	6	6	-11	-1.2	0.69	-3	-14	-0.5	-0.6	i
Cc1nn(C)cc1CNC(=O)Nc1ccc(Br)cc1Cl	1	.	.	.	0.72	2	.	2.1	0.7	.
Cc1ccc(N2C=Nc3ccc(C)c4nc(C)cc2c34)cc1	2	.	.	.	0.67	3	.	-144	0.1	.
O=C1C2CCCN2C(c2ccccc2F)N1c1cccc(Cl)c1 (centres undefined)	-1	1	-4	-0.4	0.74	5	-2.5	0.4	-1.4	i
NC(=O)c1ccc[n+](CC(=O)c2ccc(F)cc2)c1	13	8	-1	2.9	0.73	-13	-1.0	3.7	1.2	i
COc1cc(C(=O)Nc2scc(-c3ccc(C)cc3)c2C(=O)O)cc(OC)c1OC	13	-5	-8	-1.6	0.69	-2	-0.4	0.3	0.6	i
CCOc1ccc(C2C(C(=O)OC)=CN(C(C)c3ccccc3)C=C2C(=O)OC)cc1 (centres undefined)	15	-4	-17	-2.3	0.71	12	-18	-322	-1.8	i
C=CCOC(=O)CCC(=O)Nc1cccc2ccccc12	-13	.	.	.	0.78	-4	.	4.7	1.1	.
COc1ccc(/C=N/NC(=O)c2ccccc2OCc2ccccc2)c(OC)c1	38	-7	-13	4.0	.	10	-0.5	.	0.4	i
O=C(NCCN1CCOCC1)c1cc(-c2ccco2)on1	16	.	.	.	0.65	2	.	-0.8	1.4	.
O=C1OCC2=C1C(c1ccc(F)cc1)c1cc3c(cc1N2)OCCO3 (centres undefined)	.	17	13	0.6	0.71	.	-3.1	-60	.	i
CCN(C(=O)CSc1nc(-c2ccccc2)cn1N)c1c(N)n(Cc2ccccc2)c(=O)[nH]c1=O	-7	3	-3	0.0	0.62	-2	1.2	0.4	0.0	.
Continued:
SMILES	T cruzi repl	Ecoli rRNA inh	Ecoli rRNA inh OD600	Ecoli rRNA inh RFP	E coli growth	Beta cell apopt	AF4-AF9 inh	UCH37 DUB inh	Bfl-1 A1 inh	FGF22 binding
C=CCn1c(C)cc(C(=O)CSc2nnc(C3CC3)n2C2CC2)c1C	.	-20*	-7.6*	1.3*	0.7	-2	3.1	2.3	-1.5	i
Cc1cc(NC(=O)CSc2nc(N)c(NC(=O)c3ccco3)c(=O)[nH]2)no1	-2	16	14	-1.6	0.72	0	7.6	0.1	0.0	i
O=C(/C=C/Nc1ccc(F)cc1F)c1cccs1	-12	.	.	.	0.64	2	.	1.0	-8.7	.
Cc1ccccc1Nc1nc(N)nc(COC(=O)C2CCCCC2)n1	-4	.	.	.	0.68	1	.	5.6	-0.5	.
CS(=O)(=O)c1ccc(Cl)c(C(=O)O)c1	-10	.	.	.	0.61	-8	.	0.6	1.2	.
CN1CCN(S(=O)(=O)c2ccc(NC(=S)NC(=O)C(C)(C)C)cc2)CC1	7	13	8	0.0	0.65	-2	-0.2	3.2	1.0	i
COc1ccc(OC)c(C2C(C(=O)Nc3cccnc3)=C(C)NC3=C2C(=O)CCC3)c1 (centres undefined)	-8	.	.	.	0.73	-6	.	-20	1.1	.
C=CCn1c(CCC(=O)O)ccc1-c1ccc(OC)cc1	-7	.	.	.	0.71	-5	.	-29	0.7	.
O=C(CN1C(=O)NC2(CCCC2)C1=O)N1CCN(c2ccc(C(F)(F)F)cc2[N+](=O)[O-])CC1	.	0	3	-3.3	0.66	.	2.5	4.8	.	i
COc1ccccc1NC(=S)N(Cc1cccnc1)Cc1ccco1	30	1	4	1.5	0.71	-3	4.2	-2.4	-0.5	i
CC1CCN(S(=O)(=O)c2ccc(C(=O)Nc3nnc(C4=COCCO4)o3)cc2)CC1	-14	-23*	-18*	-7.1*	0.69	-1	1.5	9.6	0.4	i
Cc1cc(C(=O)NNS(=O)(=O)c2ccccc2C(F)(F)F)nn1C(C)(C)C	.	-9	-4	4.5	0.71	-9	1.8	3.6	0.1	i
CCCCOC(=O)c1nc(Cl)c(Cl)c(N)c1Cl	-6	-1	3	-8.3	0.69	-7	2.9	3.2	0.0	i
O=C(c1cccnc1)N1C2CCC1CC(O)(c1ccc(F)cc1)C2 (centres undefined)	4	.	.	.	0.69	0	.	2.7	0.1	.
CC(OC(=O)CC1CCCCC1)C(=O)Nc1ccc(F)cc1 (centres undefined)	-13	-6	-11	-1.8	0.7	-1	6.0	1.7	0.4	i
Cn1cccc1C1C(C#N)=C(N)OC2=C1C(=O)CCC2 (centres undefined)	8	7	9	2.8	0.67	6	-0.6	1.7	-0.3	i
Cc1ccc(C)c(NC(=O)Cn2c([N+](=O)[O-])cnc2C)c1	-9	.	.	.	0.69	2	.	4.2	-0.5	.
Brc1ccc(-c2nn3c(-c4ccco4)nnc3s2)o1	6	.	.	.	0.68	4	.	3.9	-0.1	.
Cn1c(N)c(C(=O)COC(=O)c2cccc(S(=O)(=O)N3CCCCC3)c2)c(=O)n(C)c1=O	-6	.	.	.	0.74	0	.	0.6	0.0	.
COc1ccc(S(=O)(=O)NCCOc2ccccc2)cc1-n1cnnn1	-1	8	3	-1.1	0.66	-8	0.2	0.1	1.4	.
COc1ccc(CCNC(=O)c2cc(C)oc2C)cc1	-12	8	7	-2.3	0.71	-1	1.5	-1.5	-0.2	i
CCCn1nnc(NC(=O)c2cc(Br)ccc2OC)n1	-1	.	.	.	0.6	1	.	2.3	0.7	.
COc1ccc(S(=O)(=O)NCC2CC3C=CC2C3)cc1OC (centres undefined)	-3	-2	-2	-0.7	0.72	-1	0.4	2.0	2.1	i
O=C(OC1CCS(=O)(=O)c2sccc21)c1ccccc1 (centres undefined)	10	.	.	.	0.67	7	.	0.8	-0.3	.
S=c1[nH]ncc2ccccc12	-17	10	3	-2.9	0.66	3	-7.4	8.6	0.0	i

Molecules above that contain a CF3 group:
SMILES	T cruzi repl	Ecoli rRNA inh	Ecoli rRNA inh OD600	Ecoli rRNA inh RFP	E coli growth	Beta cell apopt	AF4-AF9 inh	UCH37 DUB inh	Bfl-1 A1 inh	FGF22 binding
O=C(CN1C(=O)NC2(CCCC2)C1=O)N1CCN(c2ccc(C(F)(F)F)cc2[N+](=O)[O-])CC1	.	0	3	-3.3	0.66	.	2.5	4.8	.	i
Cc1cc(C(=O)NNS(=O)(=O)c2ccccc2C(F)(F)F)nn1C(C)(C)C	.	-9	-4	4.5	0.71	-9	1.8	3.6	0.1	i

(listing goes on)
SMILES	T cruzi repl	Ecoli rRNA inh	Ecoli rRNA inh OD600	Ecoli rRNA inh RFP	E coli growth	Beta cell apopt	AF4-AF9 inh	UCH37 DUB inh	Bfl-1 A1 inh	FGF22 binding
CC(OC(=O)c1ccc2ncsc2c1)C(=O)N(C)C1CCCCC1 (centres undefined)	.	-1	0	0.0	0.66	-5	4.1	-2.3	0.5	i
CC(C)(C)c1ccc(C(=O)Nc2nonc2-c2nc3ccccc3[nH]2)cc1	-1	.	.	.	0.79	9	.	0.4	-1.1	.
O=C(CNC(=O)c1ccc2c(c1)OCO2)N/N=C/c1cc(Br)ccc1O	6	6	8	-0.6	.	81*	3.0	.	-0.6	i
C=CCNc1nc(=S)[nH]c2cc(OC)c(OC)cc12	-3	.	.	.	0.66	-3	-1.6	4.0	1.7	i
Cc1ccc(NC(=O)COC(=O)c2ccc(Cl)nc2)cc1S(=O)(=O)N1CCCCC1	.	-6	-15	4.2	0.68	-3	2.4	3.9	-0.7	i
Cc1ccc(N2C(=O)CC(Sc3ncccn3)C2=O)cc1C (centres undefined)	-4	24	21	1.8	0.69	-1	-3.4	4.3	-0.1	i

Arranged by length of the SMILES (lowest first): 4 of the compounds above.
SMILES	T cruzi repl	Ecoli rRNA inh	Ecoli rRNA inh OD600	Ecoli rRNA inh RFP	E coli growth	Beta cell apopt	AF4-AF9 inh	UCH37 DUB inh	Bfl-1 A1 inh	FGF22 binding
O=C(/C=C/Nc1ccc(F)cc1F)c1cccs1	-12	.	.	.	0.64	2	.	1.0	-8.7	.
COc1ccc(CCNC(=O)c2cc(C)oc2C)cc1	-12	8	7	-2.3	0.71	-1	1.5	-1.5	-0.2	i
C=CCOC(=O)CCC(=O)Nc1cccc2ccccc12	-13	.	.	.	0.78	-4	.	4.7	1.1	.
Cc1ccc(N2C(=O)CC(Sc3ncccn3)C2=O)cc1C (centres undefined)	-4	24	21	1.8	0.69	-1	-3.4	4.3	-0.1	i
